Rango dissoc inh – prevents RanGTP from dissociating the Rango-importin beta complex. Potency, µM (highest dose often 46.1 µM), for inactives: at the highest dose activity change, negative = inhibition. O95149+P62826. Biochemical FRET Rango-importin beta, RanGTP-induced dissociation. AID 540253. 340,000 tested, 0.071% active; active means falling FRET ratio curve, often poorly fitted, with flat reads before Ran was added; inconclusive means other falling curves, or compound fluorescence or quenching; inactive means flat or rising ratio curve;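 also: potency is read from the fitted curve at half-maximal effect; % of control where 0% means no effect; nearly all actives have a fitted effect of over 45% in size; -100% = wells without RanGTP and RCC1; the record marks most hits as doubtful in a second field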
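Rango (0.1 uM)–importin beta (0.25 uM) complex; RanGTP-RCC1 trigger; 45 min RT; CFP/YFP FRET read.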
GLA inh pH 4.5 – alpha-galactosidase A (human) inhibition, pH 4.5. P06280. purified enzyme, 4-MU-alpha-Gal fluorescence, pH 4.5. activity change, negative = inhibition, % at 105 µM. 230,000 tested, under 10 active; inconclusive = small, poorly fitted or top-dose-only inhibition, or a rising curve; inactive = flat fitted curve, though single readings scatter; no compound was filed as active;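 also: 0% = full activity with enzyme and -100% = basal without enzyme; dose as in the result columns while the protocol names 77 µM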
Target sequence (P06280 whole entry, looked up): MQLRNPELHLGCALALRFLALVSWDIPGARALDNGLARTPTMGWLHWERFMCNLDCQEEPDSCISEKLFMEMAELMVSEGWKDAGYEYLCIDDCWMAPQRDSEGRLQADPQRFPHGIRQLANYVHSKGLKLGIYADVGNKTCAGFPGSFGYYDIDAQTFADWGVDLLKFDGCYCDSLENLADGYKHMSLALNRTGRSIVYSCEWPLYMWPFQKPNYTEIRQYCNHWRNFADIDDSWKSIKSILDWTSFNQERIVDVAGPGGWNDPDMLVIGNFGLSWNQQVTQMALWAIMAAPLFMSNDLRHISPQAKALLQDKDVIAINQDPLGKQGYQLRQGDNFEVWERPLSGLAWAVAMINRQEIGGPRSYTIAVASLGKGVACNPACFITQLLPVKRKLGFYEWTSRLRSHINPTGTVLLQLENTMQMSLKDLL
Rango-impB inh – prevents formation of the Rango-importin beta complex; Q14974; Rango CFP/YFP FRET sensor + importin beta, 45 min; Potency, µM (top dose mostly 92.2 µM), for the others: top-dose inhibition of complex formation; 340,000 tested, 0.031% active; AID 540263; active = rising FRET ratio curve, often small or poorly fitted; inconclusive = mostly compound fluorescence or quenching in the first reads; inactive = flat curves in all reads;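 also: potency is read from the fitted curve at half-maximal effect; 0% = DMSO wells and 100% = buffer wells lacking importin beta; nearly all actives have a fitted effect of over 15% in size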
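FRET biosensor (snurportin 1 IBB flanked by EYFP and cerulean), 50 nM, with compound 5 min, then 0.125 microM importin beta in PBS, 1 mM DTT, 0.02% Tween-20, 0.1% BSA. CFP/YFP ratio read after 45 min at room temperature; pre-read flags interference.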
miR-21 reporter – raises the signal of a miR-21 reporter. HeLa miR-21 FLuc reporter, luciferase, 48 h. Potency, µM (titrated, usually from 38.3 µM), inactives show top-dose reporter change, positive = more light. 340,000 tested, under 10 active; active = well fitted rising curve with a large enough effect; inconclusive = small, poorly fitted or top-dose-only effect; inactive = no such curve, though single readings can be large or run the other way;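 also: % of control where 0% means no effect; miR-21 action dims this reporter so a rising signal means less miR-21 action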
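Luminescence from a firefly luciferase reporter carrying a miR-21 binding site downstream, stably expressed under a CMV promoter in HeLa cells that make miR-21 endogenously, reports miRNA modulation after 48 h compound exposure up to approximately 40uM final.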
Numbers without * were called inactive; ? = inconclusive; . = no result given; & = joins results of further samples. This is a subset, so the mix of outcomes need not match the whole.

Value order: Rango dissoc inh | GLA inh pH 4.5 | Rango-impB inh | miR-21 reporter
> COc1ccc([C@H]2CC(=O)C=C(c3ccc4c(c3)OCO4)C2)cc1
  4.5% | . | -2.2% | .
> COc1ccc(NC(C)C(=O)Nc2cc(C(F)(F)F)ccc2N2CCOCC2)c(OC)c1 (centres undefined)
  -11.4% | 1.2 | -0.7% | -10.2%
> COc1ccc(N(CC(=O)NC2CCCC2)C(=O)Cn2nnc(-c3ccc(OC)c(OC)c3)n2)c(OC)c1
  18.6% | . | 0.5% | -14.8%
> COc1cccc(N2CC34C=CC(O3)C(C(=O)O)C4C2=O)c1 (centres undefined)
  11.1% | . | -3.7% | -7.8%
> C/C(=N\NC(=O)c1cccc([N+](=O)[O-])c1)c1ccco1
  -7.0% | -4.1 | -3.2% | 1.1%
> CCOC(=O)c1c(NC(=O)c2cccs2)sc(C(=O)N(C)C)c1C
  0.0% | -6.6 | 1.0% | -18.0%
> COc1ccc(NC(=S)NC2CCCC2)c(OC)c1
  0.1% | . | 7.1% | -9.4%
> CC(=O)/C(=N\Nc1cccc(Cl)c1)Sc1cccc2cccnc12
  -8.6% | -7.0 | -0.2% | -2.5%
> CCOc1ccc(OCC)c(NC(=O)CCS(=O)(=O)c2ccc(C)cc2)c1
  -3.0% | . | 0.5% | 0.3%
> Cc1sc2ncnc(N3CCC(C(=O)Nc4ccc(Cl)cc4Cl)CC3)c2c1C
  -2.7% | . | -4.7% | .
> CCOC(=O)c1c(NC(=O)CSc2nnc(C)c(=O)[nH]2)sc2c1CCC2
  3.1% | 1.0 | 0.1% | 1.9%
> CCOC(=O)c1cccc(Nc2nc(-c3cccnc3)nc3ccccc23)c1
  0.3% | 1.3 | 6.2% | 15.4%
> CCC(OC(=O)c1ccco1)C(=O)NCc1ccc(C)cc1 (centres undefined)
  -6.0% | 6.7 | -0.5% | -0.9%
> CCOc1ncccc1C(=O)OCC(=O)Nc1ccc2c(c1)OCCO2
  -1.0% | . | -0.7% | .
> CC1=NCCN1S(=O)(=O)c1c(C(C)C)cc(C(C)C)cc1C(C)C
  -0.4% | 7.3 | 0.2% | 20.7%
> CCC(Oc1ccccc1)C(=O)Nc1nnc(C(F)(F)F)s1 (centres undefined)
  1.5% | -2.2 | 0.9% | 9.0%
> O=S(=O)(O)CCS
  1.9% | 4.9 | 0.7% | .
> Cc1ccc(F)cc1NC(=O)c1ccc(OCC2CCCO2)cc1 (centres undefined)
  12.1% | . | -0.7% | .
> O=C(CN1CCC(O)(c2ccc3c(c2)OCO3)CC1)OC1CCCCC1
  4.7% | 3.1 | -1.0% | -12.0%
> COc1ccc(-c2cn3ccccc3n2)cc1
  18.7% | -2.9 | 2.6% | 6.6%
> CCCNC(=O)N1CCN(c2ncccn2)CC1
  -4.1% | 6.3 | 1.7% | -8.3%
> CCOC(=O)c1cnc(SCC(=O)Nc2cc(OC)ccc2OC)nc1N
  -12.0% | 6.6 | -3.5% | -0.4%
> O=C(c1ccc(N2CCCC2)c([N+](=O)[O-])c1)N1CCN(CCO)CC1
  19.3% | -15.8 | -0.2% | -5.0%
> COc1ccc(C(C)(C)C)cc1NC(=O)c1cncc(Br)c1
  9.5% | -7.3 | 0.3% | -12.8%
> CCCNC(=O)c1cccc(COCC(F)(F)F)c1
  2.7% | . | -0.5% | .
> Cc1cc(-n2nc(C)cc2C)nc(N)n1
  -0.8% | -9.8 | 4.2% | 1.0%
> CCCCc1nc2cc(C(=O)NCCc3cnn(C)c3)ccc2o1
  3.0% | . | -0.9% | -42.5%
> CCN(CC)c1ccc(/C=N/NC(=O)c2cc3ccccc3[nH]2)cc1
  -23.6% | . | ? | -17.1%
> COc1cc2cc(CCCOC(=O)c3ccco3)oc(=O)c2cc1OC
  -5.5% | . | 0.3% | .
> Cc1cc(OCC(=O)OCC(=O)Nc2cc(C(F)(F)F)ccc2N2CCOCC2)ccc1Cl
  -3.3% | -3.9 | 0.6% | 1.7%
> CC1CN(c2nc3ccccn3c(=O)c2/C=C(\C#N)C(=O)N2CCOCC2)CC(C)O1 (centres undefined)
  1.2% | -14.5 | 1.1% | 1.2%
> CCCCn1c(N)c(N(CCOC)C(=O)c2cc(-c3ccccc3)nc3ccccc23)c(=O)[nH]c1=O
  5.3% | . | 1.0% | .
> COc1ccc(F)cc1C(=O)COC(=O)c1n[nH]c(=O)c2ccccc12
  25.8% | . | 0.7% | .
> COc1ccc(C(=O)Nc2cccc(/C=C(\CCC(=O)O)c3nc4ccccc4s3)c2)cc1
  -22.7% | 5.4 | 3.8% | -41.9%
> Cc1cccc(NCc2n[nH]c(=S)n2-c2ccccc2)c1
  -15.0% | -3.3 | -5.9% | -0.7%
> O=C(CN1CCN(c2ccc(F)cc2)CC1)Nc1nnc(-c2ccccc2)s1
  -9.0% | 0.3 | 1.0% | -6.2%
> CCCCCCSc1ccc([C@H]2N[C@@](C)(C(=O)OC)[C@H]3C(=O)N(CC)C(=O)[C@@H]23)cc1
  ? | . | -0.3% | .
> CCn1c(CNC(=O)Cc2ccc(OC)cc2)nnc1SCCOc1ccccc1
  3.5% | 3.2 | 0.5% | 16.1%
> CCOCCCNC(=O)CN1C(=O)COc2ccc(S(=O)(=O)N3CCCC3)cc21
  -10.3% | . | -1.7% | 0.2%&-2.6%
> Cc1cc(C)c(Cn2cnc3ccccc32)c(C)c1
  13.6% | 8.8 | 4.7% | 0.6%
> COc1ccc(C(C(=O)NC2CCCCC2)N(C(=O)CCl)c2ccc(OC)cc2)cc1 (centres undefined)
  11.4% | -0.6 | 0.4% | -0.2%
> COc1cc(NC(=S)N2CCN(Cc3ccccc3)CC2)cc(OC)c1
  10.9% | 4.0 | 0.0% | -5.9%
> Cc1cccc(C2=NN(c3ccccc3)[C@@H](C(=O)N3CCOC3=O)[C@@H]2c2ccccc2)c1
  ? | 3.0 | ? | .
> CCC(CC)C(=O)Nc1cc(NC(=O)C(CC)CC)cc(C(=O)O)c1
  -17.3% | -2.3 | -0.2% | -1.3%
> COc1ccc(CN=C2NC(=O)CC(C(=O)Nc3ccc(Cl)cc3)S2)cc1 (centres undefined)
  -11.6% | -4.9 | ? | -2.2%
> COc1ccc(S(=O)(=O)NCC2CCC(C(=O)NCCCN3CCCC3=O)CC2)cc1 (centres undefined)
  -9.9% | . | -1.4% | 4.3%
> Nc1ccn(CC(=O)NCc2ccc3[nH]ccc3c2)c(=O)n1
  14.7% | . | 2.7% | .
> Cc1ccc(Nc2nc(=O)c3cc([N+](=O)[O-])ccc3s2)cc1
  -11.4% | 5.8 | 0.5% | -3.9%
> COc1ccc(NC(=O)c2cccs2)cc1C(=O)N1CCN(c2ccccc2)CC1
  20.0% | . | 4.1% | 19.4%
> CCCN1CNC(=S)N(c2ccccc2C)C1
  -0.7% | 6.1 | -1.5% | 0.3%
> O=C(CN1CCC(n2nnc3cc(F)ccc32)CC1)Nc1ccccc1N1CCOCC1
  16.3% | -1.3 | 0.2% | -1.5%
> O=C(NNS(=O)(=O)c1cccc(Cl)c1)c1cc(-c2ccc(F)cc2)nc2ccccc12
  -1.5% | 7.8 | 1.6% | -0.2%
> CC(=O)/C(N=Nc1ccc(C(=O)O)cc1[N+](=O)[O-])=C(\C)O
  25.0% | -7.3 | -1.0% | 1.3%
> COc1ccc(C(CNC(=O)/C=C/c2c(Cl)nc3ccccn23)N(C)C)cc1 (centres undefined)
  -0.2% | -4.3 | 0.2% | -0.9%
> Cc1sc2nc(CSCC(=O)Nc3ccc(Cl)cc3F)[nH]c(=O)c2c1C
  -3.0% | . | 7.0% | .
> S=C(c1ccc(-c2cc(Cl)ccc2Cl)o1)N1CCOCC1
  5.6% | -0.3 | 0.1% | -13.1%
> CCOC(=O)c1c(C)oc2c1c1c(c3ccccc32)OCN(CCCC(=O)O)C1
  0.4% | -7.5 | ? | -82.5%
> CCC(CC)C(=O)Nc1c(C(=O)N2CCN(c3ccccc3)CC2)oc2ccccc12
  -15.7% | . | 2.4% | ?
> COc1cccc(C(C(=O)NC2CCCCC2)N(C(=O)Cc2cccs2)c2ccc(-n3cnnn3)c(OC)c2)c1 (centres undefined)
  12.1% | 3.1 | 2.4% | 1.2%
> CCCn1nnc(NC(=O)c2ccc(OCC)c(Cl)c2)n1
  2.4% | -13.2 | 0.9% | -34.1%

(more compounds)
Value order: Rango dissoc inh | GLA inh pH 4.5 | Rango-impB inh | miR-21 reporter
> CCCc1cc(=O)oc2cc(OCC(=O)NCCc3ccc(S(N)(=O)=O)cc3)ccc12
  -1.7% | . | -1.3% | 4.8%
> CCCCOC(=O)CSCC(=O)N1N=C(c2cccs2)CC1c1ccc(F)cc1 (centres undefined)
  2.6% | -1.9 | 1.4% | -5.5%
> CCn1c(C)nc2cc(C(=O)OC)ccc21
  -6.6% | -0.7 | -4.0% | -17.5%
> CCCc1cc(C(=O)N2CCCC(C(=O)c3ccc(Cl)cc3)C2)n(C)n1 (centres undefined)
  -7.8% | . | -1.0% | 10.7%
> CC(=O)Nc1cccc(NC(=O)C2CC(=O)N(C3CCCCC3)C2)c1 (centres undefined)
  -8.6% | . | 2.4% | -4.2%
> C=C(C)CSc1nnc([C@@H](NC(=O)OC(C)(C)C)C(C)CC)o1 (some centres undefined)
  14.6% | 1.1 | 0.6% | -4.4%
> CS(=O)(=O)N1CCC(Oc2ccccc2C(=O)NC2CCOC2)CC1 (centres undefined)
  15.7% | 0.7 | -0.1% | -0.2%
> Cc1occc1C(=O)NNC(=O)c1ccccc1Br
  2.5% | 5.4 | 1.8% | -34.2%
> CN(C)c1nc(N)nc(-c2ccco2)n1
  4.4% | -4.5 | 4.7% | -2.3%
> Cc1cc2cc3c(=O)[nH]c(=O)nc-3n(CC(O)C(O)C(O)CO)c2cc1C (centres undefined)
  ? | . | ? | .
> O=S(=O)(Nc1nc2ccccc2nc1NCCN1CCOCC1)c1cccc(Cl)c1
  2.5% | 6.9 | -0.7% | -9.8%
> Cc1ccc(COC(=O)CCN=C2NS(=O)(=O)c3ccccc32)cc1
  -13.8% | . | -1.6% | .
> CCOc1ccc(CCNS(=O)(=O)c2ccc3c(c2)NC(=O)CC(=O)N3)cc1OCC
  13.3% | 7.1 | 0.0% | 1.4%
> O=C(NNC(=O)C1CCCCC1)c1cnccn1
  -8.9% | -1.0 | 0.0% | -2.7%
> COc1ccc(C2CC(=O)c3cnc(NC(=O)c4cccc(OC)c4)nc3C2)cc1 (centres undefined)
  -2.4% | -3.3 | -3.6% | -4.2%
> O=C(Nc1ccn(Cc2cccc3ccccc23)n1)c1cccnc1
  20.2% | -2.8 | 3.4% | 14.4%
> CC(C)(C)C(=O)OCc1nc(-c2ccc(C(F)(F)F)cc2)cs1
  -9.8% | -11.7 | -2.0% | -16.4%
> COC(=O)c1cc(S(=O)(=O)NCCc2cccc(C)c2)cn1C
  2.9% | . | 1.2% | 0.3%
> CCc1nnc(NC(=O)C2CCCN2C(=O)NC2CCCCC2)s1 (centres undefined)
  -8.6% | -3.8 | 1.2% | -5.0%
> CC(C)(C)C(=O)Cn1ncc(NC2CC2)c(Br)c1=O
  0.2% | -1.3 | 0.0% | -16.0%
> CC1C(=O)C(C)C(c2cc(Cl)ccc2O)NC1c1cc(Cl)ccc1O (centres undefined)
  -4.3% | . | -2.8% | 16.3%
> COc1ccc(/C=C2\COc3ccccc3C2=O)cc1OC
  -5.5% | -24.6 | -0.8% | ?
> Cc1onc(-c2ccccc2Cl)c1C(=O)OCn1nnc2ccccc2c1=O
  6.2% | -1.6 | -0.1% | -11.4%
> CN(C)c1ncc(C2=C(Cl)C(=O)C(N3CCCC3)=C(Cl)C2=O)s1
  -3.7% | . | 2.0% | .
> CCC(C(=O)NCc1cccnc1)c1ccccc1 (centres undefined)
  -11.9% | 3.0 | 0.6% | -1.5%
> Cc1[nH]n(-c2ccccc2)c(=O)c1N=Nc1ccc2c(c1)OCO2
  -0.2% | 2.9 | -1.0% | 0.4%
> COc1ccc(C2(CNC(=O)Cc3ccc(OC)c(OC)c3)CCOCC2)cc1
  24.4% | 1.1 | -5.9% | -4.0%
> COc1ccc(C(=O)Nc2ccc(C(=O)N3CCCCC3C)cc2)c(OC)c1OC (centres undefined)
  -0.8% | . | -0.7% | 2.9%
> O=c1c2sccc2nc(SCc2cc(=O)n3ccccc3n2)n1Cc1ccccn1
  . | 1.5 | . | -26.2%
> COC(=O)c1c(Oc2nc(OC)cc(OC)n2)cccc1Oc1nc(OC)cc(OC)n1
  -12.4% | -1.1 | -2.1% | 1.1%

High-throughput results from PubChem BioAssay.
